# WNV protease inh: blocks West Nile virus NS2B-NS3 protease activity; WNV NS2B-NS3 protease, fluorogenic substrate Ex360/Em465; active compounds read low; 65,000 tested, 0.18% active; AID 577; P06935; z-score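 (tested at a level between 10 and 100 µM)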;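 active = z-score at -3 or under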;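 also: score is relative to mean and spread of the compound wells of a plate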
# Target sequence (P06935 1371-1501 limits assumed): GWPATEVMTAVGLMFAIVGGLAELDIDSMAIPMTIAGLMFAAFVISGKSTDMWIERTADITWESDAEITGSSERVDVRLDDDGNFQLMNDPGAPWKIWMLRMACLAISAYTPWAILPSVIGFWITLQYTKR
# Target sequence (P06935 1502-1679 limits assumed): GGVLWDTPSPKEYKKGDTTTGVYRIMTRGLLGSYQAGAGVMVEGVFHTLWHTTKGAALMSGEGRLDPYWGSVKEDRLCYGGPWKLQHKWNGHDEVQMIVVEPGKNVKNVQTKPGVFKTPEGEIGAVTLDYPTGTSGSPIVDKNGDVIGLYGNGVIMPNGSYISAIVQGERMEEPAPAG
# MT1-MMP reporter: MT1-MMP gene expression reporter suppression – cell-based, luciferase reporter, luminescence (AID 618). MT1-MMP promoter luciferase reporter cells, luminescence. calls from a first round at 10 µM; hits with a dose series show EC50 in µM. 87,000 tested, 0.62% active;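 active = over half of the reporter light lost at 10 µM or EC50 under 50 µM; inactive = the rest and hits that failed the dose series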;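 also: actives suppress MT1-MMP promoter-driven transcription so potencies describe inhibitors; HT1080 fibrosarcoma cells; overnight exposure; toxic or luciferase-blocking compounds were not removed from the actives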
# Hsc70 ATP site: small molecules displacing fluorescent ligand from Hsc70 – biochemical, fluorescence polarization, primary screen (AID 568); displacement, % at 20 µM, or IC50 in µM where a hit was titrated; 83,000 tested, under 10 active; Hsc70 fluorescence polarization, probe displacement; higher % means a stronger effect; strong numbers were not always called active;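 active = displacement above 50% without optical interference and an IC50 on retest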;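 also: ATPase domain with a fluorescein-tagged ATP probe; 0% = vehicle and 100% = excess ADP; read after one hour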
# * marks the source's active call; other numbers are inactive results; i = inactive; · = no result given; + = active, no number. An excerpt, so the mix of outcomes need not match the whole.
SMILES,WNV protease inh,MT1-MMP reporter,Hsc70 ATP site
Cc1cnc(C(=O)Nc2ccc(C(=O)N(C)C3CCCCC3)cc2)cn1,0.52,i,2.8%
CCOc1nc(OCC)nc(N2CCC(C)CC2)n1,0.67,i,3.9%
CCOc1ccc(CC(=O)NCc2cn3c(C)csc3n2)cc1,-0.77,i,-1.3%
O=C(O)c1cnn2c(C(F)(F)F)cc(-c3ccco3)nc12,0.31,i,-6.4%
CN(C1CCCCC1)S(=O)(=O)c1ccc2c(c1)c(=O)c(C(=O)NCCCN1CCCC1)cn2C,0.76,i,1.5%
COc1cc(C2Nc3cccc4cccc(c34)N2)cc(OC)c1OC(C)=O,-0.42,i,4.1%
Cc1nc2oc3ccccc3c(=O)c2c(=O)n1Cc1ccccc1,0.1,i,2.0%
CCOC(CNC(=O)c1ccc2c(c1)nc(C)n2-c1cccc(F)c1)OCC,·,i,0.3%
CC(C)(C)c1nc(N2CCN(C(=O)c3ccco3)CC2)c2nnn(Cc3ccccc3)c2n1,·,i,1.7%
C/C(=N/NC(=O)c1cc(C(C)C)[nH]n1)c1cccs1,·,i,-2.1%
CCOC(=O)CCCNC(=O)c1cncc(O)c1,·,i,-3.9%
Cc1nc(SCC(=O)NCc2ccc3c(c2)OCO3)c(C#N)c2c1CCCC2,0.02,i,7.2%
c1cc(C2CCCCC2)ccc1Oc1nc(N2CCOCC2)nc(N2CCOCC2)n1,-0.81,i,-4.0%
OC(c1cccs1)c1nccc2ccccc12 (stereo unspecified),0.26,i,-0.4%
Cc1cc(NC(=O)Cn2c(=O)c3c(ncn3CCC(C)C)n(Cc3ccccc3)c2=O)no1,-0.00537,i,-11.5%
CC1CC(C)CN(C(=O)C(NS(=O)(=O)c2ccc3c(c2)oc(=O)n3C)C(C)C)C1 (stereo unspecified),0.81,i,-0.5%
CN(C)/C=N/c1sc2c(c1C#N)CC(C)(C)NC2(C)C,·,i,-2.5%
CCOC(=O)c1c(C)[nH]c(C)c1C(=O)CSc1nnc(-c2cc(OC)c(OC)c(OC)c2)o1,-0.58,i,8.0%
O=C1CCCN1CCC1CCN(C2CC(=O)N(c3ccc(Cl)cc3)C2=O)CC1 (stereo unspecified),-0.64,i,0.9%
CC(C)(C)c1ccc(O)c(N)c1,-0.78,i,-4.7%
O=C(NC1CCSC1=O)c1cccc(C(=O)NC2CCSC2=O)c1 (stereo unspecified),0.41,i,-0.7%
Cc1ccc(S(=O)(=O)Cn2nnnc2C(C(C)C)N2CCc3ccccc3C2)cc1 (stereo unspecified),-0.03,i,1.3%
O=C(CN1C(=O)NC(Cc2ccccc2)C1=O)NC(=O)NC1CCCCC1 (stereo unspecified),1.17,i,0.4%
CCOC(=O)C1=C(C)Nc2nc3ccccc3n2C1c1ccncc1 (stereo unspecified),0.84,i,-0.2%

# Some of these compounds in order of SMILES length, largest number first.
SMILES,WNV protease inh,MT1-MMP reporter,Hsc70 ATP site
O=C(CN1C(=O)NC(Cc2ccccc2)C1=O)NC(=O)NC1CCCCC1 (stereo unspecified),1.17,i,0.4%
CN(C)/C=N/c1sc2c(c1C#N)CC(C)(C)NC2(C)C,·,i,-2.5%
CC(C)(C)c1ccc(O)c(N)c1,-0.78,i,-4.7%

# Continuation:
SMILES,WNV protease inh,MT1-MMP reporter,Hsc70 ATP site
COCc1nnc(NC(=O)c2ccc(S(=O)(=O)N3CCCCCC3)cc2)o1,2.55,i,2.8%
Cc1ccc(Cl)cc1N1CCN(C(c2cccnc2)c2nnnn2C2CCCCC2)CC1 (stereo unspecified),-0.02,i,0.3%
COc1ccc(-c2noc(C3CCCN(C(=O)c4ccccc4OC)C3)n2)cc1OC (stereo unspecified),-0.41,i,-7.4%
CCN(CCNC(=O)Cn1cc2c(n1)CCCC2)c1ccccc1,-0.56,i,4.8%
CCN1C(=O)CC(N2CCC(Cc3ccccc3)CC2)C1=O (stereo unspecified),-0.51,i,-8.3%
CCOC(=O)C1=NNC(C(=O)c2ccc(C)cc2)C1c1ccc(OC)cc1 (stereo unspecified),·,i,5.4%
O=C(Nc1ccc(Cl)cc1)N(Cc1nnc2n1CCCCC2)c1ccccc1,-0.21,i,-3.6%
Cc1ccc2cc(C(c3nnnn3CC3CCCO3)N3CCc4ccccc4C3)c(=O)[nH]c2c1 (stereo unspecified),0.00525,i,1.7%
CN(C)c1nc2c(c(=O)[nH]c(=O)n2C)n1Cc1ccc(F)cc1,1.12,i,-2.2%
CC(C)C(C(=O)Nc1ccc(N2CCOCC2)cc1)N1C(=O)c2ccccc2C1=O (stereo unspecified),0.16,i,1.2%
COc1ccc(OC)c(NC(=O)CSc2nnnn2-c2ccc3c(c2)OCO3)c1,-0.68,i,3.8%
CC(C)(C)n1nnnc1C(c1ccncc1)N1CCN(c2ccc(O)cc2)CC1 (stereo unspecified),·,i,-0.6%
Cc1ccccc1OCC(=O)Nc1ccccc1N1CCOCC1,1.77,i,-3.7%
Cc1nc2ccccc2c2oc(C(=O)N3CCN(C(=O)c4ccco4)CC3)cc12,-0.01,i,-0.9%
O=C(O)c1cc(-c2ccccc2)n[nH]1,·,i,2.6%
COCCN1C(=O)c2ccc(C(=O)NCc3cccnc3)cc2C1=O,0.64,i,-5.1%
O=CN(Cc1ccco1)C1(C(=O)NC2CCCCC2)CCCCC1,-0.25,i,0.6%
O=C(/C=C/c1c(Cl)cccc1Cl)n1cccn1,·,i,-2.8%
CC(=O)NC1(C(F)(F)F)NC(=O)N(CC(C)C)C1=O (stereo unspecified),1.43,i,0.8%
CC(C)OC(=O)c1c(NC(=O)CCn2nnc3ccccc32)sc2c1CCCC2,1.14,i,-8.3%
COc1ccc(C(=O)NCC(=O)OCC(=O)NC(=O)NC2CCCCC2)cc1OC,0.04,i,-1.9%
CC(C)Cn1c(=O)c2c(c3ccccc31)OC(C)C(=O)N2 (stereo unspecified),0.32,i,1.5%
CCCCN(CCCNc1ncnc2nc[nH]c12)c1ccccc1,0.02,i,-1.9%
CCN(CC)S(=O)(=O)c1ccc(S(=O)(=O)Nc2cc3c(cc2C(C)=O)OCO3)cc1,0.73,i,-4.0%
COc1ccc(-n2nnnc2SCC(=O)Nc2cccc(C)n2)cc1OC,0.36,i,3.8%
COc1cc(O)c2c(c1)OC(C)(C)CC2=O,0.24,i,7.3%
O=C1CC(C(=O)N2CCOCC2)C2(CCCC2)O1 (stereo unspecified),0.45,i,2.8%
CC(C)Nc1nc(SCC(N)=O)nc(N2CCOCC2)n1,·,i,3.3%
O=C(COc1ccccc1)OCc1cc2ccccc2[nH]c1=O,-0.69,i,-0.5%
Cc1cc(C)c2[nH]c(=O)c(CN(Cc3nnnn3C3CCCC3)C3CCCCC3)cc2c1,0.2,i,0.0%
O=C(Cc1ccc(F)cc1)NCCc1ccccc1,·,i,-2.1%
CC(C)Cn1c(-c2ccco2)csc1=Nc1cccnc1,·,i,-5.9%
COc1cc(-n2nc(C)c3c2OC(N)=C(C#N)C3c2ccccc2)c(Cl)c(Br)c1O (stereo unspecified),0.08,i,-15.3%
COc1ccc(NC(=O)CN(C)S(=O)(=O)c2ccccc2)cc1,·,i,2.8%
O=C(Nc1nnc(SCc2ccccc2)s1)c1cccs1,-0.92,i,-1.6%
COC(=O)/C=C/S(=O)(=O)c1ccc(NC(C)=O)cc1,0.27,i,2.6%
CCNC(=O)Cn1cnc2c1c(=O)n(C)c(=O)n2C,1.01,i,-0.3%
O=C(Nc1cccc2ccccc12)OC1C=CS(=O)(=O)C1 (stereo unspecified),-0.08,i,-1.3%
COc1ccc(C2c3c(oc4ccccc4c3=O)C(=O)N2CCN2CCOCC2)cc1OC (stereo unspecified),0.55,i,2.9%
CCOC(=O)N1CCN(CC(=O)Nc2ccc(OC)cc2)CC1,0.00733,i,6.0%
CCOC(=O)C(CC)n1cnc2c(nnn2-c2ccc(C)cc2)c1=O (stereo unspecified),0.94,i,-7.4%
Cc1cccc(C)c1OCc1n[nH]c(=S)o1,·,i,2.5%
CC(=O)Nc1cc2c(cc1C(=O)c1ccccc1)OCCO2,2.23,i,-0.1%
CCCSc1nnc(NC(=O)Nc2ccc(F)cc2)s1,0.1,i,-2.2%
CCOc1ccc(OCC)c(NC(=O)CSc2nc3c(c(=O)n(C)c(=O)n3C)n2C(C)C)c1,-0.97,i,17.9%
c1ccc(-c2nnc(-c3ccccn3)nc2NC2CCCCC2)cc1,·,+,2.2%
COc1ccccc1/C=N/n1c(N)c(S(=O)(=O)c2cccs2)c2nc3ccccc3nc21,·,i,-3.3%
O=C(Nc1cccc(OC(=O)c2ccco2)c1)c1ccco1,-0.6,i,-0.8%
CCN(Cc1ccccc1)C(=O)CSc1nc(C)cc2c1C(=O)OC2,-0.91,i,6.7%
CC(C)CCN1CN(S(=O)(=O)c2cccs2)c2nc3ccccc3nc21,·,i,0.5%
CCOC(=O)CSC(CC)C(=O)Nc1nnc(C(C)C)s1 (stereo unspecified),-0.76,i,1.4%
Cc1ccc(S(=O)(=O)N2CCCC2C(=O)Nc2nc3c(s2)CCCC3)cc1 (stereo unspecified),0.24,i,-6.0%
Cc1nc2ccccc2nc1N1CCC(C)CC1,-0.95,i,5.9%
Cc1cccc(-n2c(CCCN3C(=O)c4ccccc4C3=O)nc3ccccc3c2=O)n1,-0.29,i,1.8%
Cc1ccc(NC(=O)c2oc3ccc(S(=O)(=O)N4CCOCC4)cc3c2C)cc1C,-0.49,i,-3.9%
CCCOc1ccc(S(=O)(=O)n2cc(Br)c(=O)[nH]c2=O)cc1,0.76,i,-0.7%
Cc1cc(C)nc(NS(=O)(=O)c2ccc(NC(=S)NC(=O)CC(C)C)cc2)n1,·,i,3.5%
COc1cc(NC(=O)c2ccco2)c(C(=O)O)cc1OC,·,i,3.2%
O=c1c(-c2ccco2)[n+]([O-])c2ccccc2n1OCc1ccccc1F,·,i,8.3%
CCOC(=O)CSC(CC)C(=O)Nc1nnc(CC)s1 (stereo unspecified),0.86,i,6.4%
# Next part.
SMILES,WNV protease inh,MT1-MMP reporter,Hsc70 ATP site
c1ccc(-c2cn3c(n2)CCc2ccc4cccnc4c2-3)cc1,·,i,-0.3%
Cc1ccc(-n2ncc3c(NCc4ccco4)ncnc32)c(C)c1,0.78,i,6.6%
C=CCN1CC(O)=C(c2ccccc2)C1=N,0.93,i,2.9%
O=C(O)c1cc(-c2cccs2)nc2cc3c(cc12)OCCO3,3.1,i,1.9%
CCN(CC(=O)Nc1ccc2c(c1)OCCO2)c1nc(-c2cccnc2)nc2ccccc12,-1.07,i,-7.1%
CCOC(=O)N1CCC2(CC1)C(C#N)=C(N)Oc1c2c(C)nn1-c1cccc(Cl)c1,-0.1,i,28.6%
O=C(O)CCC(NS(=O)(=O)c1ccc(-c2ccccc2)cc1)C(=O)O (stereo unspecified),1.38,i,10.5%
O=C(c1ccco1)N1CCN(c2ncnc3scc(-c4ccc(F)cc4)c23)CC1,·,i,-2.5%
Cc1c(Cl)c(C(=O)NNC(=S)NCc2ccco2)nn1C,·,i,2.4%
OCCN1CCN(C(c2cccs2)c2ccc3cccnc3c2O)CC1 (stereo unspecified),1.45,i,3.9%
CCN(CC)CCCNC(=O)c1cn(C)c2ccc(S(=O)(=O)N(C)C)cc2c1=O,-0.28,i,2.0%
O=C(CNC(=O)C1CCCCC1)NC1=NCCS1,0.23,i,-3.5%

# Brought forward from above: 6 compounds, followed by the next part.
SMILES,WNV protease inh,MT1-MMP reporter,Hsc70 ATP site
O=C(O)CCC(NS(=O)(=O)c1ccc(-c2ccccc2)cc1)C(=O)O (stereo unspecified),1.38,i,10.5%
O=C(c1ccco1)N1CCN(c2ncnc3scc(-c4ccc(F)cc4)c23)CC1,·,i,-2.5%
Cc1c(Cl)c(C(=O)NNC(=S)NCc2ccco2)nn1C,·,i,2.4%
OCCN1CCN(C(c2cccs2)c2ccc3cccnc3c2O)CC1 (stereo unspecified),1.45,i,3.9%
CCN(CC)CCCNC(=O)c1cn(C)c2ccc(S(=O)(=O)N(C)C)cc2c1=O,-0.28,i,2.0%
O=C(CNC(=O)C1CCCCC1)NC1=NCCS1,0.23,i,-3.5%
Cc1ccc(CSCCNC(=O)CN2C(=O)c3ccccc3S2(=O)=O)cc1,·,i,-2.6%
COc1ccccc1Cn1c(=O)c2ccccc2n2c(SCc3csc(C)n3)nnc12,1.4,i,1.0%
O=C1c2ccccc2NC(c2ccccn2)N1c1ccccc1F (stereo unspecified),·,i,1.7%
Cc1cccc(OCC(=O)Nc2ccc(N3CCN(S(C)(=O)=O)CC3)cc2)c1C,0.3,i,-3.6%
O=C(CN(CC1CCCO1)S(=O)(=O)c1ccc(S(=O)(=O)NCC2CCCO2)cc1)Nc1ccccc1 (stereo unspecified),·,i,-2.2%
O=C(CSc1nnc(CCCO)n1-c1ccccc1)Nc1nccs1,0.21,i,-1.3%
CCn1c(CNc2ccc(F)cc2)nnc1SCC(=O)Nc1ccc(OC)cc1OC,0.64,i,-5.6%
CC(C)Cc1n[nH]c(=O)[nH]1,-0.53,i,0.1%
O=c1cc(-c2ccccc2)nc2nc(-c3ccccc3)[nH]n12,0.56,i,-1.0%
O=C(CCCSc1nc(-c2ccco2)cc(C(F)(F)F)n1)NCc1cccs1,-1.05,i,-1.3%
COc1ccccc1NC(=O)Nc1ccc(Br)cn1,-1.02,i,-6.7%
CCC(CC)C(=O)Nc1nnc(SCC(=O)N2CCN(c3ccccc3OC)CC2)s1,-0.00306,i,-6.7%

# Reprinted from the results shown, three compounds:
SMILES,WNV protease inh,MT1-MMP reporter,Hsc70 ATP site
Cc1ccc(CSCCNC(=O)CN2C(=O)c3ccccc3S2(=O)=O)cc1,·,i,-2.6%
COc1ccccc1Cn1c(=O)c2ccccc2n2c(SCc3csc(C)n3)nnc12,1.4,i,1.0%
O=C1c2ccccc2NC(c2ccccn2)N1c1ccccc1F (stereo unspecified),·,i,1.7%
